Source: PubChem
LANA-H2A inh: blockers of LANA interaction with H2A/H2B – biochemical, FP readout, HTS, primary screen. Protein LANA1 (Human herpesvirus 8 type P (isolate GK18)), Q9QR71. inhibition, % (test concentration not listed). cell-free LANA-H2A/H2B peptide, fluorescence polarization. 0.6% of 320,000 active; in the data active means inhibition mostly above about 10%, no sharp cut-off; inactive means mostly below about 6.7%;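 further: stock transfer was 7.5 nL into about 10 µL; 0% = median of vehicle wells and 100% = median of positive control wells; one replicate is shown; the record names a cut of 25% in any replicate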
Target sequence (Q9QR71 whole entry, looked up): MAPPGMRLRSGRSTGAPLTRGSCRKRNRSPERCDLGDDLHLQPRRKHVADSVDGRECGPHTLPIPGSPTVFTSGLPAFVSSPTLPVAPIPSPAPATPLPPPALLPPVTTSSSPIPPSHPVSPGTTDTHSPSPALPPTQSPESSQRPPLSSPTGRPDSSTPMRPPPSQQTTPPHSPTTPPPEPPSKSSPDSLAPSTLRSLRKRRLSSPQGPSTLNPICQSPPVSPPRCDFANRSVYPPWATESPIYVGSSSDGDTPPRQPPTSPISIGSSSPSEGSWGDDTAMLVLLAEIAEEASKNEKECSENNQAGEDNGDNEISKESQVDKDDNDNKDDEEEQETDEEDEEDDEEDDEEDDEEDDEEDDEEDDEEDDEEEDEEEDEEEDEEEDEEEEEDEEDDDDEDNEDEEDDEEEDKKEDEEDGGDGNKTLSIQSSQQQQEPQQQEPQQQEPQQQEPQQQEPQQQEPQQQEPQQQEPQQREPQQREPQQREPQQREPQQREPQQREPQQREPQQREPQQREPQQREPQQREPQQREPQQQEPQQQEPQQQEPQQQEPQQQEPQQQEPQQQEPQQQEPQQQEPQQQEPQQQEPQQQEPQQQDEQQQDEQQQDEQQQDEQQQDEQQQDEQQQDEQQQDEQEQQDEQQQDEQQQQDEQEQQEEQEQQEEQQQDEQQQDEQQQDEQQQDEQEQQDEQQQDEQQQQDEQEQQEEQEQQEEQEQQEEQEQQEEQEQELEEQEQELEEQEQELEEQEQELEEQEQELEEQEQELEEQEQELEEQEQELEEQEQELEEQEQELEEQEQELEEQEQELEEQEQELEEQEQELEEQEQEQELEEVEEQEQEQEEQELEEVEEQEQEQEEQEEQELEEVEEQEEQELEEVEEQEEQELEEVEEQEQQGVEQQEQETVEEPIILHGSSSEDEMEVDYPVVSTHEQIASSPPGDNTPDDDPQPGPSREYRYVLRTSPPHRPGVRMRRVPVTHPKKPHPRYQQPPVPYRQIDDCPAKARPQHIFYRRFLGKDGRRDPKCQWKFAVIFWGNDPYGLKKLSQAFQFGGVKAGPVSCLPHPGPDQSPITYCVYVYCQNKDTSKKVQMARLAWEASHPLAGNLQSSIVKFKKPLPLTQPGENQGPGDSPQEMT
Bfl-1 A1 inh: caspase 3/7 activation in MEF A1-2A-BIM cells, primary screen, A1 inhibitor project, cell-based, luminescence, HTS. 0.066% of 330,000 active. Caspase-Glo 3/7 luminescence, 3 h; percent of clofoctol response, vehicle zero. caspase activation, % (concentration not given with the values);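 active means over half of replicate activation scores above 10%, or exactly half above 10 with the replicate mean above 10; inconclusive means replicate mean below 10 yet half the replicates above 10; inactive means over half of replicates below 10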;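 further: wells of about 30 µL received 50 nL stock; many hits fall short of the cut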
Vif A3G: inhibitors of Vif binding to APOBEC3G peptide, primary screen, biochemical, TR-FRET, GST-Vif 1-94, biotin-A3G peptide, dose response retest (AID 1117319). Virion infectivity factor (Human immunodeficiency virus type 1 group M subtype B (isolate …. TR-FRET GST-Vif / biotin-A3G peptide binding; higher % means a stronger effect; test concentration not given here; strong numbers were not always called active. one-dose inhibition, %; IC50 in µM for titrated hits. 0.57% of 260,000 active;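 active means above the screen mean plus three standard deviations and confirmed in dose response; inconclusive means results disagree or hit not tested in dose response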;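 further: Vif residues 1-94 fused to GST binding biotinylated APOBEC3G peptide 110-148; 0% = full assay without inhibitor and 100% = GST in place of GST-Vif; retest series ran down from 100 µM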
HNF4A DNA FP: change in binding of human HNF4A to DNA, primary screen, biochemical, fluorescence polarization, FITC-DNA. 0.3% of 360,000 active. 1 h. Hepatocyte nuclear factor 4-alpha (Homo sapiens), P41235. activity change, % at 10 µM; in the data active means activity change above about 30%, passing the limit was not always enough;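 further: controls were the assay level and a saturating level of protein; the project sought stronger binding though the title names inhibitors; some compounds called inactive have numbers as strong as hits; positive values seem to mean higher polarization but the record does not say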
Ecoli growth: E. coli growth inhibition, primary screen, OD600; Escherichia coli growth, 23 h; hits give low values; OD600 absorbance (test concentration not listed); 0.21% of 330,000 active; AID 1053175, 2014;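 active means OD600 absorbance below the run mean of sample wells minus 3.6 SD, in any replicate, cut at about 0.56 in these data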;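 further: stock transfer was 300 nL into about 60 µL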
UCH37 DUB inh: inhibitors of human UCH37 deubiquitinase, primary screen, biochemical, Ub-AMC cleavage, fluorescence; Ubiquitin carboxyl-terminal hydrolase isozyme L5 (Homo sapiens), Q9Y5K5; purified proteasome/UCH37; inhibition, % (no concentration beside the values); 0.33% of 330,000 active; AID 588478, 2011;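 active means mean of two replicates above 20%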;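 further: 0% = compound-free wells with enzyme and 100% = wells lacking proteasome; stock transfer was 100 nL into about 20 µL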
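Schedule: 30 min plus 25 min, room temperature / Material: human UCH37 within purified proteasomes / Technique: AMC fluorescence intensity at 355/460 nm / Buffer or medium: pH 7.4 Tris-HCl (50 mM) with ovalbumin, ATP-MgCl2, DTT / Controls: wells without proteasome as full block, compound-free enzyme plus substrate as uninhibited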
Beta2AR agonist: beta2AR agonists driving receptor internalization, primary screen, cell-based, FAP fluorogen, flow cytometry | AID 504454, 2011 | 0.43% of 340,000 active | Am2.2-beta2AR cells; reference of the scale not given here | Beta-2 adrenergic receptor (Homo sapiens), P07550 | response, % (no concentration beside the values);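 active means response above a set limit, near 3 SD of response in nonfluorescent compounds, cut at about 42% in these data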;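 further: stock transfer was 100 nL into about 11 µL; a reference agonist was the positive control; negative values mostly stem from fluorescent compounds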
* = called active by the depositor; u = inconclusive; x = no result given; & = joins results of further samples. Hits appear at their usual frequency. Share with any hit: about 2.1%.

nr	Compound	LANA-H2A inh	Bfl-1 A1 inh	Vif A3G	HNF4A DNA FP	Ecoli growth	UCH37 DUB inh	Beta2AR agonist
1	COc1cc(C#Cc2c(-c3cncn3C)n(C)c3ccc(-c4cc(OC)c(OC)c(OC)c4)cc23)cc(OC)c1	3.5	-0.9	x	-0.1	0.7	-22	16
2	Cc1cccc(N(CC(=O)NC2CCCC2)C(=O)c2cc3cc4cccc(C)c4nc3s2)c1C	-3.3	-0.2	-6%	-3.5	0.74	-6.4	10
3	CN(C(=O)c1ccc(COc2ccccc2Br)o1)c1ccccc1	-4.4	-0.3	4%	1.5	0.66	2.5	4
4	OC1(c2cccs2)CN(c2ccc(Cl)cc2)C2=[N+]1CCCC2 (stereo unspecified)	x	-1.8	31%	-2.9	0.7	4.9	2
5	CCCCN1C(=O)C(O)(CC(=O)c2c(C)coc2C)c2ccccc21 (stereo unspecified)	3.0	0.2	4%	-0.1	0.69	1.2	2
6	O=C(CSc1nnc(COc2ccccc2)o1)Nc1ccc(F)cc1	-3.9	0.4	x	0.7	0.71	1.6	3
7	Cc1ccccc1N(CC(=O)Nc1ccccc1C(=O)NCc1ccco1)S(=O)(=O)c1ccccc1	-1.9	1.4	6%	0.3	0.74	-3.7	2
8	COc1ccc2c(c1OC)C(=O)N1C2SC(C)(C)[C@H]1C(=O)NC(C)C (stereo partly specified)	0.6	1.9	4%	0.4	0.69	-9.2	1
9	CC(C)(C)C(=O)Nc1ccccc1C(=O)Nc1cccnc1	3.2	-0.3	-2%	0.1	0.69	-0.9	-16
10	COCCCn1c(SCC(=O)Nc2ccc(NC(C)=O)cc2)nc2sc3c(c2c1=O)CCC3	4.9	0.4	x	-1.1	0.71	-2.2	-14
11	O=C1N[C@@H](c2ccccc2)COC(=O)[C@H](Cc2ccc(F)cc2)C/C=C\C[C@@H]1CC(=O)N(CCO)Cc1ccccc1	18	0.8	x	-1.5	x	5.7	-4
12	COc1ccc(CNC(=O)COc2ccc(Br)c(C)c2)cc1	-6.0	-2.9	5%	1.8	0.69	1.8	-2
13	CCOC(=O)c1sc(Nc2cccc(Cl)c2)nc1C	-2.5	0.6	0%	-1.0	0.73	1.8	0
14	O=C(O)CCSc1ccc2ccccc2n1	1.7&-1.1	-1.8&-0.4	-15%&-16%	1.7&-5.7	0.69&0.74	3.4&1.8	1&6
15	COC(=O)c1ccc(C(=O)OC)c(NC(=O)CN2CCN(c3ccccc3)CC2)c1	x	x	19%	2.1	0.7	4.7	-7

Entries of single compounds, quoted from the list:
`O=C(O)CCSc1ccc2ccccc2n1` across the screens: LANA-H2A inh = 1.7&-1.1; Bfl-1 A1 inh = -1.8&-0.4; Vif A3G = -15%&-16%; HNF4A DNA FP = 1.7&-5.7; Ecoli growth = 0.69&0.74; UCH37 DUB inh = 3.4&1.8; Beta2AR agonist = 1&6
`COc1cc(C#Cc2c(-c3cncn3C)n(C)c3ccc(-c4cc(OC)c(OC)c(OC)c4)cc23)cc(OC)c1` across the screens: LANA-H2A inh = 3.5; Bfl-1 A1 inh = -0.9; Vif A3G = x; HNF4A DNA FP = -0.1; Ecoli growth = 0.7; UCH37 DUB inh = -22; Beta2AR agonist = 16

The listing continues.
nr	Compound	LANA-H2A inh	Bfl-1 A1 inh	Vif A3G	HNF4A DNA FP	Ecoli growth	UCH37 DUB inh	Beta2AR agonist
16	COC(CN(C)S(=O)(=O)c1cc2c3c(c1)CCN3C(=O)CC2)OC	-8.5	0.3	x	1.4	0.68	2.4	7
17	COc1ccc(C(OC(=O)c2ccco2)C(=O)NC2CCCCC2)cc1OC (stereo unspecified)	-0.5	0.3	3%	-0.6	0.67	2.1	-6
18	O=C(COC(=O)CNS(=O)(=O)c1ccccc1)Nc1ccc(Cl)cn1	2.3	-0.3	2%	-1.9	0.73	-1.7	2
19	COc1cccc(CN2CC(C(=O)NCCc3ccccc3C(F)(F)F)CCC2=O)c1 (stereo unspecified)	2.8	-0.7	-8%	4.0	0.65	0.9	6
20	NC(=O)OCC(COC(N)=O)c1ccccc1	3.9&11	-0.6&1.9	1%	1.4&-5.4	0.69&0.7	3.0&-0.3	5&2
21	Cc1nn(CCCC(=O)NCc2ccccc2)c(=O)c2nn(-c3ccccc3)c(C)c12	-0.1	0.3	x	0.6	0.68	-0.5	0
22	COc1ccc(C(=O)Cc2ccc3c(c2)OCO3)c(O)c1	-6.4	-4.2	3%	-0.6	0.74	-8.5	1
23	O=C1OCC(CO)(CO)N=C1NNc1ccc(Cl)c(Cl)c1	-5.1	0.1	11%	-0.5	0.18*	9.4	4
24	O=C1CSc2ccc(S(=O)(=O)N3CCN(c4ccccc4F)CC3)cc2N1	1.9	-0.8	15%	0.9	0.71	6.4	-6
25	Cc1ccc(C)c(N(CC(=O)NC2CCCC2)C(=O)CCCC(=O)Nc2ccccn2)c1	x	x	6%	-0.9	0.71	-3.4	-2
26	COc1ccc(C2COC(=O)C2=N)c(NC(=O)c2ccc(Cl)cc2)c1 (stereo unspecified)	-5.7	-0.3	x	-0.4	0.68	4.6	-11
27	CC1=C(N2CCCCC2)CCC1=O	5.1	0.7	x	2.1	0.69	33*	-12
28	CN(C)CCCN(Cc1cc2cc3c(cc2[nH]c1=O)OCO3)C(=S)NCc1ccco1	-2.6	-0.8	11%	3.8	0.64	-193	-4
29	Cn1cc(/C=C2\SC(=O)NC2=S)c2ccccc21	-1.4	-0.3	12%	-39	0.74	6.6	10
30	Cc1ccc(NC(=S)NNC(=O)c2ccco2)cc1	2.3	-0.5	5%	7.8	0.68	1.9	-5
31	COc1ccc(CCNC(=O)c2ccc(CNS(=O)(=O)c3ccc(C(C)(C)C)cc3)cc2)cc1OC	-5.6	-0.5	x	-2.0	0.68	1.4	14
32	O=C(NCCCN1CCOCC1)[C@@H]1CSC2c3ccccc3C(=O)N21 (stereo partly specified)	-1.2	2.1	6%	1.3	0.74	2.7	8
33	CCOC(=O)CNC(=O)CSc1ccc2nnc(-c3cccnc3)n2n1	1.3	-0.8	1%	-7.3	x	x	2
34	COc1ccc(N2CC(NC(=O)Nc3ccccc3)CC2=O)cc1 (stereo unspecified)	0.3	0.7	-9%	-0.3	0.66	5.8	-2
35	CC(Cc1ccccc1)C(=O)N(C)Cc1cccnc1 (stereo unspecified)	-6.1	0.0	4%	4.5	0.71	3.1	6
36	CN(C)c1ccc(C(=O)c2ccc(N(C)C)c3ccccc23)cc1	-3.0	0.2	2%	2.3	0.7	3.6	19
37	O=C1OC(c2ccccc2)=NC12CC2c1ccc(Cl)cc1 (stereo unspecified)	-6.9	0.1	2%	-3.0	0.72	4.7	10
38	O=C1/C(=C/c2ccncc2)SC(=S)N1C1CCS(=O)(=O)C1 (stereo unspecified)	3.9	0.0	23%	-0.3	0.55	7.1	20
39	CC(=O)Oc1ccc(C(=O)Nc2cccc(C(=O)NC(C)(C)C)c2)cc1	-6.9	0.2	-4%	1.0	0.68	0.9	-4
40	O=C(c1cccnc1)N1CCC(c2nc3ccccc3[nH]2)CC1	x	x	25%	x	0.65	2.4	x
41	COC(=O)C[C@H]1c2ccccc2S(=O)(=O)N1Cc1ccc(OC)cc1	1.7	0.4	x	-1.0	x	0.2	-1
42	COc1ccc(C(C(=O)NC2CCCC2)N(Cc2ccccc2)C(=O)CNC(=O)c2ccco2)cc1 (stereo unspecified)	-4.3	0.5	-6%	-0.6	0.68	-0.5	6
43	Cc1ccc(C)c(CSc2nnc(-c3cccs3)n2Cc2ccco2)c1	3.8	-0.4	7%	13	0.64	1.3	67*
44	CCc1ccc(N2CC(O)(c3cccs3)[N+]3=C2SCCC3)cc1 (stereo unspecified)	2.8	-0.5	x	-0.8	0.66	3.0	13
45	O=C(NNc1c2ccccc2nc2ccccc12)c1cccc(O)c1	4.1	-0.6	u	7.2	0.69	0.4	-6
46	Cc1ccc(S(=O)(=O)N2CCC(NC(=O)c3cccnc3)CC2)cc1Cl	-1.2	0.6	x	1.4	0.66	1.3	-1
47	COC(=O)c1ccc(S(=O)(=O)NCc2ccc(OC)cc2)n1C	-2.9	0.4	1%	-2.4	0.65	2.2	-1
48	O=C1c2ccccc2C(=O)N1c1ncn[nH]1	-2.3	0.0	9%	-4.3	0.68	0.1	-7
49	COc1cc(Cl)c(C)cc1NC(=O)COC(=O)c1cc[n+]([O-])cc1	4.3	-0.6	-1%	0.4	0.71	0.0	5
50	Cc1ccc(C2CN(c3ccccc3)CC2C(=O)c2ccc(F)cc2)cc1 (stereo unspecified)	2.1	1.1	2%	0.5	0.75	-11	5
51	O=C(c1cnc2sccn2c1=O)N(Cc1ccccc1)c1ccccn1	2.4	0.1	8%	-0.6	0.71	6.9	8
52	COc1ccc(OCC(=O)Nc2ccc(NC(=O)c3cccs3)cc2)cc1	-0.3	-0.3	x	-0.7	0.7	2.2	54*
53	CC(NC(=O)CN(C)CC(=O)Nc1ccc(F)c(F)c1F)c1ccccc1 (stereo unspecified)	2.1	0.1	0%	2.9	0.7	1.0	-6
54	CCCCCCN(C(=O)CCCCCN1C(=O)NC(c2ccc(-c3ccccc3)cc2)C(C(=O)OCc2ccccc2)=C1C)C(C(=O)NCCCC)c1ccc(OCC(=O)OC)cc1 (stereo unspecified)	4.5	0.9	0%	x	x	x	x
55	CCCCOc1ccc(-c2c(C#N)c(N)[nH]c(=S)c2C#N)cc1	1.2	0.2	23%	-2.4	0.68	10	-8
56	Cc1cc(N)n(-c2ccc(Oc3ccccc3)c(S(=O)(=O)O)c2)n1	x	x	21%	-4.2	0.67	-0.2	-1
57	COC(=O)Cc1ccc(N(Cc2ccccc2F)S(=O)(=O)c2ccc(Cl)cc2)cc1	-2.5	0.1	28%	-2.3	0.73	2.0	-5
58	CCCCn1c(N)c(N(Cc2ccccc2OC)C(=O)COc2ccccc2OC)c(=O)[nH]c1=O	x	0.3	5%	5.8	0.67	-4.4	0
59	O=C(O)CCc1ccc(-c2ccccc2)o1	4.0	0.8	14%	-3.3	0.68	2.6	4
60	Cc1cc(C)c(C)c(S(=O)(=O)N2CCN(C(=O)CCC(=O)N3CCOCC3)CC2)c1C	5.3	0.5	x	2.6	0.67	5.4	3
61	O=C(CCCCCNc1nc(=S)[nH]c2ccccc12)NCCc1ccc(Cl)cc1	1.5	1.1	25%	-2.3	0.75	5.8	55*
62	Cc1ccccc1C(=O)/C=C1\NC(=O)CS1	-1.6	0.6	1%	-1.5	0.71	18	10
63	Cc1nnc(Sc2c(N)n(C)c(=O)[nH]c2=O)s1	-0.3	-0.4	-2%	-0.7	0.65	0.9	-2
64	O=C(c1sc2ccccc2c1Cl)N(Cc1ccccc1Cl)C1CCS(=O)(=O)C1 (stereo unspecified)	-2.5	0.8	-6%	-0.5	0.78	-1.2	-19
65	CN(C)CCCNC(=O)c1cc(C(=O)C2CCCCC2)c[nH]1	5.3	-0.1	-2%	1.4	0.68	2.6	-14
66	CC1=C(C(=O)NCc2ccccc2)C(c2cc(Br)cc(Br)c2OC(C)C)NC(=O)N1 (stereo unspecified)	3.6	0.0	11%	-3.1	0.73	0.4	6
67	Cc1ccccc1Cn1c(C(=O)OC(C)C)cc2c1ccn2C	2.5	1.2	31%	2.0	0.71	0.1	11
